Source: PubChem (National Center for Advancing Translational Sciences (NCATS))
VDR inh = Inhibitors of the vitamin D receptor (VDR): qHTS. hit rate 0.93% among 400,000. Potency, µM, for the others: max response, negative = inhibition, actives largely listed as inhibitors. VDR-SRC2-3 peptide fluorescence polarization, 2 h. Vitamin D3 receptor (Homo sapiens), P11473; active = well fitted inhibition curve with a large enough effect; inconclusive = small, poorly fitted or top-dose-only effect, or another doubt; inactive = no such curve, though single readings can be large or run the other way; also: series mostly up to about 120 µM
Target sequence (P11473 whole entry, looked up): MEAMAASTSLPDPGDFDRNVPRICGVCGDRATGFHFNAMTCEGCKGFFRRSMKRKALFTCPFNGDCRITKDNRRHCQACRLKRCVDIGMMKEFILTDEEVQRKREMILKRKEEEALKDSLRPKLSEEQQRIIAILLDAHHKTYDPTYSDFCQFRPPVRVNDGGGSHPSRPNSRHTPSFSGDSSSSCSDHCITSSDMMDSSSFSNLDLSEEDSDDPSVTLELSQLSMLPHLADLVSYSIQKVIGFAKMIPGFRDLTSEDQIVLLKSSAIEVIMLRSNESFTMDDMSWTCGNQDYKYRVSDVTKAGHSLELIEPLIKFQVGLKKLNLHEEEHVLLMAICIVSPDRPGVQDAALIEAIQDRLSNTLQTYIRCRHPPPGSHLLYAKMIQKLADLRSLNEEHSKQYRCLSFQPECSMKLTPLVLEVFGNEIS
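Fluorescence polarization assay measuring small-molecule disruption of VDR binding to the coregulator peptide SRC2-3. Compounds were pin-transferred (23 nl) into the reagent mix and incubated 2 h at room temperature before reading.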
The depositor's hits bear a star; ? = inconclusive; & = joins results of further samples. % is scaled to controls: 0 for no effect and ±100 for the full control effect; potency is read from the fitted curve at half-maximal effect.

SMILES | VDR inh
Cc1cccc(NC(=O)CSc2cc(C)c3ccccc3n2)c1 | 13.5%
CCCCCCC1CC(C)(C(=O)CNc2nncs2)OC1=O (configuration not stated) | -23.5%
COC(=O)c1c(NC(=O)c2ccccc2C(=O)O)sc2c1CCCC2 | -19.2%
COc1cccc(NC(=O)Cn2nnc(C(=O)Nc3ccccc3)c2N)c1 | 8.7%
COCCn1c(=O)c(-c2cccs2)nc2cnc(N3CCNCC3)nc21 | -10.4%
Cn1ncc(Br)c1NC(=O)Nc1ccc(Cl)cc1 | -2.0%
CCN1C(=O)C2C(c3ccccc3F)NC(Cc3ccc(O)cc3)(C(=O)OC)C2C1=O (configuration not stated) | 7.6%
CCc1ccc(NS(=O)(=O)c2ccc3[nH]cc(C(=O)NCCc4cccc(C)c4)c(=O)c3c2)cc1 | 1.0%
OC(COc1ccccc1)Cn1c2ccccc2c2ccccc21 (configuration not stated) | -15.9%
Cc1ccc(C)c(N2CCN(C(=O)c3cnn(C(C)(C)C)c3C3CCN(C(=O)OC(C)(C)C)CC3)CC2)c1 | 2.1%
CCOC(=O)C1(CCOc2ccccc2)CCN(Cc2cc(OC)c(O)c(OC)c2)CC1 | -16.1%
CCc1c(C)nc2c(OC)cccc2c1SCCC(=O)O | -13.4%
COc1ccc(C2=NS(=O)(=O)N(C)C(C(=O)Nc3cc(C)ccc3O)=C2)cc1OC | -4.2%&3.1%
CCOC(=O)C1=C(CS(=O)(=O)c2ccc(Br)cc2)NC(=O)NC1c1ccccc1 (configuration not stated) | ?
CCN1C(=O)[C@H]2[C@@H](c3ccc(OC)cc3)N3C(=O)CN(CC4CC4)C(=O)[C@@]3(C)[C@H]2C1=O | -12.4%
C/C(CCc1ccccc1)=N/NC(=O)C(=O)NC(C)c1ccccc1 (configuration not stated) | -5.2%
O=C(Nc1ccc2nsnc2c1)C1CC1 | -11.2%
COc1ccc(-c2ccc(C3C(C#N)=C(N)Oc4n[nH]c(C)c43)o2)cc1 (configuration not stated) | -16.9%
O=C(Nc1nnc(C23CC4CC(CC(C4)C2)C3)s1)c1ccco1 | 17.3%
Cc1ccc(CN(Cc2cccn2-c2nnc(N3CCCC3=O)s2)C(=O)Nc2cc(C)cc(C)c2)cc1 | -3.0%
N#Cc1c(-n2ncnc2-c2ccccc2Cl)sc2c1CCCCC2 | -9.2%
O=C(CCCn1c(=O)[nH]c2ccccc2c1=O)NC1CCCCCC1 | -13.9%
COc1ccc(NS(=O)(=O)c2ccc(N3CCCCC3)c(NC(=O)C(C)NC(N)=O)c2)cc1 (configuration not stated) | -1.6%
CN(CC(=O)Nc1ccccc1Sc1ccccc1)C1CCCCC1 | -22.9%
CCC(=O)Nc1ccc(NC(=O)/C=C/c2ccc(Cl)cc2)cc1 | ?

4 of these compounds, set out differently.
molecule	VDR inh
CCCCCCC1CC(C)(C(=O)CNc2nncs2)OC1=O (configuration not stated)	-23.5%
COC(=O)c1c(NC(=O)c2ccccc2C(=O)O)sc2c1CCCC2	-19.2%
COc1cccc(NC(=O)Cn2nnc(C(=O)Nc3ccccc3)c2N)c1	8.7%
COCCn1c(=O)c(-c2cccs2)nc2cnc(N3CCNCC3)nc21	-10.4%

Next structures:
SMILES | VDR inh
CC(C)(C)c1ccc(-n2nc(C#N)c(Cl)cc2=O)cc1 | ?
CCOc1ccccc1NC(=O)CSc1nnc(-c2ccncc2)o1 | ?
O=C(NCc1cccs1)C1CCC(CNS(=O)(=O)c2cccs2)CC1 (configuration not stated) | -10.7%
COc1ccc(/C=C2\SC(=N)N(c3ccc(F)cc3)C2=O)cc1 | -10.4%
CCS(=O)(=O)C(C)(CCl)C(=O)Nc1ccc(C(=O)OC)cc1 (configuration not stated) | -11.8%
CN(Cc1nccs1)C(=O)c1cc(COc2cccc3cnccc23)on1 | 6.4%
CCOC(=O)c1csc(-c2ccc(OC)c(OC)c2)n1 | -11.4%
COc1ccccc1OC(C)C(=O)N1CCc2ccccc21 (configuration not stated) | -2.0%
COc1ccccc1NC(=O)CC(NC1CCCCC1)C(=O)O (configuration not stated) | 0.2%
Cc1sc(NC(=O)c2ccco2)c(C(c2cccnc2)N2CCN(C)CC2)c1C (configuration not stated) | -6.0%
O=C(Nc1cccc(Cl)c1)N(CCN1CCOCC1)Cc1ccccc1F | 24.4%
CC(=C/C(=O)O)/C=C/c1ccc([N+](=O)[O-])cc1 | -17.6%
O=C(COC(=O)COc1cccc(Br)c1)Nc1ccc(F)cc1F | 0.3%
CCSc1nnc(NC(NC(C)=O)(C(F)(F)F)C(F)(F)F)s1 | 5.5%
Cc1ccccc1OCCC(=O)OCC(=O)Nc1cc(S(=O)(=O)N2CCOCC2)ccc1Cl | 12.6%
CCn1nc(NS(=O)(=O)c2ccccc2)c2cc3ccccc3nc21 | ?
Cc1ccccc1Nc1cc(C(=O)NCC2CCCO2)c2ccccc2n1 (configuration not stated) | ?
CCc1c(N)nc(N)nc1Nc1ccccc1C | 8.9%
COc1ccccc1-c1nc(C#N)c(N2CCN(C(c3ccccc3)c3ccccc3)CC2)o1 | 8.6%
O=C(Nc1ccc(C(=O)N2CCOCC2)cc1)c1ccccc1[N+](=O)[O-] | 5.2%
CC(=O)N/C(=C/c1ccc(OS(=O)(=O)c2ccc(C)cc2)cc1)C(=O)NCCCO | ?
CN(C)CCN(Cc1ccccc1)c1nccc(N(C)C)c1C#N | 14.8%
O=C1Cc2ccccc2Sc2cc(OCCCN3CCCCC3)ccc21 | -0.5%
N#Cc1ccc(-c2ccco2)nc1SCC(=O)c1ccc(Cl)cc1 | 11.2%
COc1ccc(OC)c(CCNC(=O)c2c(C)oc3ncn(C)c(=O)c23)c1 | 3.2%

Sorted by molecular weight (rising): 6 of the compounds above.
SMILES | VDR inh
CC(=C/C(=O)O)/C=C/c1ccc([N+](=O)[O-])cc1 | -17.6%
Cn1ncc(Br)c1NC(=O)Nc1ccc(Cl)cc1 | -2.0%
C/C(CCc1ccccc1)=N/NC(=O)C(=O)NC(C)c1ccccc1 (configuration not stated) | -5.2%
CN(Cc1nccs1)C(=O)c1cc(COc2cccc3cnccc23)on1 | 6.4%
CCOC(=O)C1(CCOc2ccccc2)CCN(Cc2cc(OC)c(O)c(OC)c2)CC1 | -16.1%
Cc1ccccc1OCCC(=O)OCC(=O)Nc1cc(S(=O)(=O)N2CCOCC2)ccc1Cl | 12.6%

Further entries:
SMILES | VDR inh
CC(C)(C)OC(=O)N(CCc1ccccc1)Cc1ccccc1OCc1ccc(NC(=O)C2CCC2)cc1 | 7.4%
O=C(CSc1nnc(CNc2ccc(F)cc2)n1CC1CCCO1)Nc1ccccc1 (configuration not stated) | 8.0%
COc1cccc(C(=O)NCc2ccc(N3CCN(C(=O)OC(C)(C)C)CC3)cc2)c1 | -2.6%
CCOC1(OCC)N=C(N)C2(C#N)C(c3ccc(NC(C)=O)cc3)C12C#N (configuration not stated) | -1.4%
Cn1cnc2c1c(=O)n(Cc1ccccc1C#N)c(=O)n2C | 9.8%
c1ccc(CN2CCN(C3CCCSc4ccccc43)CC2)cc1 (configuration not stated) | -12.0%
CCc1ccccc1NC(=O)CN(C)C(=O)COC(=O)c1ccco1 | 27.1%
Cc1ccc(-c2nn(-c3ccccc3)cc2/C=N/NC(=O)c2ccc3c(c2)OCO3)cc1 | -3.1%
Cc1cc(Br)ccc1NC(=O)c1cnc(N2CCN(c3ccccn3)CC2)c2ccccc12 | 2.2%
Cc1ccc(C)c(C(C)NC(=O)c2ccc(Br)o2)c1 (configuration not stated) | -11.4%
COc1ccccc1/C=C/C=C1N=C(/C=C/c2ccc(Cl)cc2)OC/1=O | -1.1%
Cc1cccc(NC(=O)c2cc(=O)n(Cc3ccccc3)c(=O)[nH]2)c1 | 4.4%
COc1ccc(CCNC(=O)CCCCn2c(=O)c3ccccc3n(Cc3ccccc3Cl)c2=O)cc1OC | 3.1%
COC(=O)CC1C(C)(C)C(OC(C)=O)[C@@]2(O)C=C3C4CC(=O)OC(c5ccoc5)[C@]4(C)CCC3[C@@]1(C)C2=O (some centres not stated) | -3.6%
COc1ccccc1/C=C/C(=O)Nc1cccc(S(=O)(=O)NC2=NCCCCC2)c1 | 23.2%
O=C(C1CCN(S(=O)(=O)c2ccccc2)CC1)N1CCC1 | -30.4%
CCN(CC(=O)Nc1c(F)cccc1F)C(=O)c1nn(C)c(=O)c2ccccc12 | -7.1%
COc1ccc(/C=N/N(C)C2=NCCN2)c(OC)c1OC | -2.3%
COc1cc(-c2nc(Cn3nnc(C(=O)Nc4cccc(Cl)c4)c3C)c(C)o2)cc(OC)c1OC | -15.0%
C=CCOc1c(Br)cc(CNc2nccs2)cc1OC | -3.4%
Cc1ccc(Cl)cc1N1CCN(CC(O)COCc2ccco2)CC1 (configuration not stated) | -1.6%
Cc1cccc2c(C(=O)N3CCCCC3)cc(-c3ccccc3)nc12 | -14.9%
CN(C(=O)c1cccc(C#N)c1)c1nnc(-c2ccccn2)s1 | -4.4%
CSc1ccc(C2c3c(oc4ccc(F)cc4c3=O)C(=O)N2c2ccc(C)cn2)cc1 (configuration not stated) | 3.3%
O=C(CCC(=O)Nc1ccccc1Cl)NNC(=O)Nc1cccc([N+](=O)[O-])c1 | -5.2%
(continued)
SMILES | VDR inh
COc1cccc(C(C(=O)NC2CCCC2)N(Cc2ccccc2OC)C(=O)c2ccco2)c1 (configuration not stated) | -7.9%
CC1CCN(C(=O)Cn2c(=O)n(CC3CCC(C(=O)NC(C)C)CC3)c(=O)c3sccc32)CC1 (configuration not stated) | 9.9%
O=c1c2c3c(sc2ncn1/N=C/c1ccco1)CCCC3 | -0.5%
COc1ccc(NC(=S)NCC2CCCO2)c(OC)c1 (configuration not stated) | 11.6%
CCOC(=O)CN1N=C(/C=C/c2ccc(OC)cc2)CCC1=O | -3.9%
Cc1cccc(S(=O)Cc2ccc(C(=O)NC3CCCCCC3)o2)c1 (configuration not stated) | 6.2%
COc1cccc(C(=O)OCc2ccccc2C#N)c1O | 2.6%
CCOc1ccc2nnnn2n1 | -2.1%
COc1ccc(/C=C2\SC(=S)N(CCC(=O)NCCCn3ccnc3)C2=O)cc1 | -0.2%
OC(COc1ccccc1)CN1CCN(c2cccc(Cl)c2)CC1 (configuration not stated) | -7.1%
COC(=O)c1c(NC(=O)c2cc(=O)c3c(C)cc(C)cc3o2)sc2c1CCCC2 | 8.4%
COc1cc2cc(CN(CCc3ccccc3C)C(=S)NCCCN(C)C)c(=O)[nH]c2cc1OC | -21.7%
Cc1nonc1CC(=O)N1CCCC(C(=O)c2cccc(C(F)(F)F)c2)C1 (configuration not stated) | -18.2%
CC(=O)c1ccc(Nc2cc(C)nc3ccccc23)cc1 | 28.1%
Cc1ccc(NC(=O)CSc2nc3c(c(=O)[nH]2)CCC3)c(C)c1 | 16.4%
CCc1nnc(NC(=O)c2ccc(Br)c(S(=O)(=O)N3CCOCC3)c2)s1 | 17.2%
COc1ccc(C(c2c(C)[nH]n(C(N)=S)c2=O)C(C#N)C#N)cc1 (configuration not stated) | 28.2µM*
CCOC(=O)C1=C(SCC)c2cc3c(n2C1=O)CCCC3 | ?
COC(=O)c1ccc(CNC(=O)C23CC4CC(CC(C4)C2)C3)cc1 | 1.8%
COc1ccc(NC(=O)CN(C)C(=O)c2cccc3ccccc23)cc1 | 15.0%
COc1ccc(C(=O)NC(=S)N2CCOCC2)cc1OC | 6.4%
Cc1cc([N+](=O)[O-])cc(/C=N\NC(=O)C2COc3ccccc3O2)c1O (configuration not stated) | -9.9%
Cc1cc(C)nc(CCNC(=O)c2cc(COc3c(C)cccc3C)on2)n1 | -13.8%
Cc1ccc(NC(=O)CSc2nc3ccccc3nc2Cc2ccccc2F)cc1F | -15.2%
COC(=O)c1sccc1S(=O)(=O)N(CC(=O)Nc1c(C)cccc1C)c1ccc(C)c(C)c1 | -1.6%
Next part
SMILES | VDR inh
CC(=O)Nc1ccc(S(=O)(=O)N(C)CC(=O)OC(C)C(=O)NC2CCCC2)cc1 (configuration not stated) | -3.4%
O=C(O)C1CSC(c2ccccc2Cl)N1C(=O)c1ccc(Cl)cc1 (configuration not stated) | -1.5%
CC(=O)N1CCC(c2c[nH]c3ccccc23)CC1 | -7.6%
Cc1cc(C)cc(NC(=O)c2cc(C)nn2C)c1 | 1.4%
COc1ccc(Cl)cc1NS(=O)(=O)c1cccc(C(=O)NCC2CCCO2)c1 (configuration not stated) | -15.1%
O=C1c2cccc3cccc(c23)C(=O)N1CCCN(C(=O)c1cccs1)c1cccc(F)c1 | -16.4%
Cc1ccc2c(c1)NCCO2 | -2.4%
CCN(Cc1ccncc1)Cc1ccc(OC)cc1OC | -13.0%
O=C(NCc1ccc(F)cc1)C1CCCN(S(=O)(=O)c2cccnc2)C1 (configuration not stated) | -7.8%
O=C1CN(C(=O)COc2ncnc3ccccc23)c2ccccc2N1 | 0.6%
CCN(CC)S(=O)(=O)c1ccc(OC)c(NC(=O)COc2ccccc2[N+](=O)[O-])c1 | 9.2%
C[C@@H]1C[C@H](Nc2ccccc2)c2ccccc2N1C(=O)c1cccnc1 | 10.1%
C=CCNC(=O)N[C@@H](Cc1ccccc1)C(=O)OC | -0.9%
Cc1cn2c(=O)cc(COC(=O)c3cccc(NC(=O)COc4ccccc4C)c3)nc2s1 | 7.7%
COc1ccccc1NC(=O)Cc1nn(C)c(=O)c2ccccc12 | -14.1%
Fc1ccc(-c2nnc(Cc3nnc(-c4ccc(F)cc4)o3)o2)cc1 | 2.4%
c1ccc2cc(OCCN3CCCC3)ccc2c1 | 2.8%
Oc1ccc(/C=N/Nc2ncc(Br)cn2)c(O)c1 | 6.8%
CCOCCCN(C)C1CCN(C(=O)c2oc3ccccc3c2NC(=O)Cc2cccc([N+](=O)[O-])c2)CC1 | -16.1%
Cc1cc(NS(=O)(=O)c2ccc3oc(=O)c4ncn(C)c4c3c2)ccc1Br | 2.7%

VDR inh: hit marks shown above
SMILES | VDR inh
COc1ccc(C(c2c(C)[nH]n(C(N)=S)c2=O)C(C#N)C#N)cc1 (configuration not stated) | 28.2µM*

Some of the compounds tested (hit frequency here may not be typical).
